From PubChem
Biofilm kill mix – mixture kills Candida albicans biofilm cells; inhibition, % at 7.6 µM; C. albicans biofilm persisters + clotrimazole, fluorescence viability; primary screen in compound mixtures of four per well; 120,000 compounds, 0.02% hits; AID 1242;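 active = inhibition above 30.3% in the primary screen of four-compound pools, then above 30% when the compound was retested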;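 note: compounds exposed to preformed 24 h biofilms for 48 h; the number belongs to the whole pool; some results filed as inactive read as strong as hits; inactives centre near 12; 0% = biofilm with clotrimazole alone and 100% = kill control; retested singly at about 60 µM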
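Test system: C. albicans biofilms. Buffer or medium: RPMI/MOPS medium, pH 7.0. Timing: 48 h compound exposure at 37 °C. Technique: Alamar Blue fluorescence. Evaluation: percent inhibition of biofilm viability.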
An asterisk follows results filed as active.

SMILES | Biofilm kill mix
CCCCn1cc2c(c1-c1cccc(C)c1)c(=O)n(C)c(=O)n2C | 12.6
O=C(CSc1ncnc2ccccc12)c1cccs1 | 0.7
COc1ccccc1NC(=O)C1(c2ccccc2)CCCC1 | 13.3
O=C(N/N=C/c1cc2c(cc1Br)OCO2)c1cccnc1 | 31.5
Cc1ccc(Cc2c[nH]c(=S)s2)cc1 | 16.5
Clc1cccc(C2CCN(Cc3nc(COc4ccccc4)no3)C2)c1 (stereo not drawn) | 5.8
Cc1ccc(C(=O)COC(=O)c2cnccn2)cc1C | 4.0
CC(=O)c1sc(NC(=O)C(C)(C)C)nc1C | 7.0
COc1cc(CNc2nc(C)c([N+](=O)[O-])c(C)c2C#N)cc(OC)c1OC | 14.4
CS(=O)(=O)Nc1ccc(C2=NN(S(=O)(=O)c3ccc(F)cc3)C(c3ccco3)C2)cc1 (stereo not drawn) | 8.0
O=C(/C=C/Nc1ccc(Oc2ccccc2)cc1)c1ccco1 | 5.5
O=C(O)c1ccccc1C(=O)c1ccc(Cl)cc1 | 21.3
Cc1cccc(C(=O)OCc2cncs2)c1 | 2.1
CCC(Sc1ccc2nnc(CCNS(=O)(=O)c3ccc(OC)cc3)n2n1)C(=O)OC (stereo not drawn) | 11.6
Clc1ccc(/C=C\c2nccc3c2[nH]c2ccccc23)cc1 | 27.0
CC1(O)CC(c2ccc(Cl)cc2)=NN1C(=O)c1ccc([N+](=O)[O-])cc1 (stereo not drawn) | 18.1
COc1cc2oc(=O)ccc2c(OC)c1CC(O)C(C)(C)O (stereo not drawn) | 9.7
CCOc1cccc(C(=O)NC(c2ccccc2)C(C)C)c1 (stereo not drawn) | 3.8
CCCNC(=O)c1c(NC(=O)C2COc3ccccc3O2)sc2c1CCCC2 (stereo not drawn) | 10.9
Cc1ccccc1Nc1nnc(SCC(=O)Nc2ncc(C(F)(F)F)cc2Cl)s1 | -4.1
Cc1ccc(S(=O)(=O)NN2Cc3ccccc3C2=N)cc1 | 5.9
Cc1sc(NC(=O)CN(Cc2ccc(F)cc2)C(=O)C(C)(C)C)c(C(N)=O)c1C | 13.6
CC(=O)NC(c1ccc(C)cc1)c1cc([N+](=O)[O-])c2cccnc2c1O (stereo not drawn) | 8.4
COC(=O)c1ccc(N=NN2CCCCCC2)cc1 | 26.1
CN(C)c1ccc(C(=O)OCC(=O)NCCC2=CCCCC2)cc1 | 12.0
COc1ccccc1C(=O)Nc1ccc(Br)cc1C | 18.5
COc1ccc(-n2ccnc2)cc1 | 17.3
O=C(/C=C/c1ccc(Cl)cc1)Nc1ccc(CN2CCOCC2)cc1 | -0.9
COc1ccc(S(=O)(=O)Nc2ccc(N3CCOCC3)cc2)cc1[N+](=O)[O-] | 12.2
Cc1cccn2c1nc(=S)n2C(=O)c1ccco1 | 12.8
COc1cc(C=O)ccc1OC(=O)c1ccc(C(C)C)cc1 | 6.0
S=c1[nH]nc(C2CCCCC2)o1 | -5.8
COc1cc(CNc2ccc(N3CCN(C(C)=O)CC3)cc2)ccc1OCc1ccc(F)cc1 | 16.6
CCOC(=O)c1c(NC(=O)CSc2ncccn2)sc2c1CCN(Cc1ccccc1)C2 | 5.1
O=c1c2nnn(-c3cccc(F)c3)c2ncn1Cc1ccccn1 | 8.2
Cc1oc(C(C)(C)C)cc1C(=O)N1CCN(c2ccc(C(F)(F)F)cn2)CC1 | 16.3
O=C(N/N=C/c1cc([N+](=O)[O-])ccc1O)C12CC3CC(CC(C3)C1)C2 | 16.0
Nn1cnnc1N/N=C\c1ccc(-c2ccccc2[N+](=O)[O-])o1 | 21.7
CCC(CCC(=O)Nc1cccc([N+](=O)[O-])c1)C(=O)O (stereo not drawn) | 24.9
Nc1c([N+](=O)[O-])c(=O)sc2ccccc12 | 10.7
O=C(CCC1CCCN(Cc2ccc3c(c2)OCCO3)C1)NCc1ccccc1F (stereo not drawn) | 11.5
O=C(O)c1cccc(CSc2ncn[nH]2)c1 | 21.5
CNC(=O)COC(=O)CCC(=O)c1ccc(Cl)cc1 | 11.8
COCCn1c(=NC(=O)c2cc(-c3cccs3)nc3ccccc23)sc2cc(S(N)(=O)=O)ccc21 | 8.0
O=C(CCCCCNC(=O)c1ccccc1Cl)N/N=C/c1ccco1 | 5.4
CCOc1ccccc1-n1c(=O)c2ccccc2c2ccccc2c1=O | 12.2
CC(C)NC(=S)NCc1cccs1 | -3.7
Cc1ccc(C(=O)NCCOc2cccc3cccnc23)cc1Cl | 10.9
CCCCCN(C(=O)CN1CCC(Cc2ccccc2)CC1)c1c(N)n(CCCC)c(=O)[nH]c1=O | 22.2
CCOC(=O)[C@H]1NN=C(C(=O)OC)[C@@H]1c1ccccc1 | 16.4
O=C(Nc1ccccc1)Nc1ccccc1C(=O)NCCCN1CCOCC1 | 2.6
Cc1cc(C)n2nc(S(=O)(=O)Nc3c(Cl)cccc3Cl)nc2n1 | 6.5
CSCCC(NS(=O)(=O)c1ccc(Cl)c(Cl)c1)C(=O)O (stereo not drawn) | 1.0
CCC1SC(CC)C(=O)N(CC(=O)NCc2ccc(F)cc2)C1=O (stereo not drawn) | 18.1
O=Cc1cccn1Cc1ccccc1[N+](=O)[O-] | 13.1
CCCCNS(=O)(=O)c1ccc2nc(SCC(=O)Nc3ccccc3)[nH]c2c1 | 18.3
CS(=O)(=O)N(CC(=O)N1CCCCC1)c1cccc(F)c1 | -0.2
COc1cc(C=O)c(Cl)cc1OCC(N)=O | 4.0
CCOc1ccc(N2C(=O)Nc3ccccc3C2(O)C(=O)NCc2ccc(F)cc2)cc1 (stereo not drawn) | -2.8
CC1CN(S(=O)(=O)c2ccc(C(=O)Nc3ccc(S(=O)(=O)Nc4ncccn4)cc3)cc2)CC(C)O1 (stereo not drawn) | 14.1

Carrying on.
SMILES | Biofilm kill mix
O=c1cc(CN2CCN(Cc3ccccc3)CC2)c2cc3c(cc2o1)CCC3 | 18.6
N#C/C(=C/c1ccco1)c1nc2ccccc2s1 | 15.6
Cc1ccc(CC(=O)Nc2ccc(OC(F)F)c(Cl)c2)cc1C | 16.9
Cc1c(C)n(O)c2ccc3nonc3c12 | 17.4
Cc1cccc(Nc2nc(NCC3CCCO3)nc(N)c2[N+](=O)[O-])c1 (stereo not drawn) | 14.1
[O-]c1c[n+](-c2ccccc2)no1 | 12.4
C#CC(CC)(CC)NC(=O)/C=C/C(=O)O | -0.1
c1coc(CNCc2cccs2)c1 | 19.9
C/C(=N\NC(=O)Cn1ccc(C(F)(F)F)n1)c1ccco1 | 15.2
CCC(Sc1nc(-c2cccc(OC)c2)c(C#N)c(=O)[nH]1)C(=O)Nc1nnc(C(C)C)s1 (stereo not drawn) | 5.9
Cc1occc1-c1nnc(SCC(=O)Nc2ccccn2)o1 | 6.7
CCn1c(N2CCN(C(=S)Nc3ccc(OC)cc3)CC2)nc2ccccc21 | 2.1
COc1ccc(-n2c(SCC(=O)N/N=C/c3ccccc3OCC(=O)O)nc3ccccc3c2=O)cc1 | 3.4
S=C(NCCc1ccccc1)N/N=C/c1cccc(Cl)c1Cl | 23.7
COc1cc(NC(=S)NCCN2CCOCC2)cc(OC)c1OC | 8.8
O=C1CN(C(=O)COc2ccc(F)cc2Br)c2ccccc2N1 | 13.4
O=C(/C=C/c1ccco1)c1ccccc1O | 8.6
CC(=O)Nc1nnc(SCC(=O)N2CCN(Cc3ccccc3)CC2)s1 | 12.4
O=C(O)c1ccc2c3c(cccc13)C(=O)N(c1cccc3ccccc13)C2=O | 15.1
Cc1ccc2nc(Cl)c3cc(C(=O)N(CCN(C)C)Cc4ccco4)sc3c2c1 | 21.9
Cc1ccc(C(=O)N/C(=C\c2ccc(-c3ccc([N+](=O)[O-])cc3)o2)C(=O)NC2CCS(=O)(=O)C2)cc1 (stereo not drawn) | 28.3
Cc1ccc(C2OCC3(CO2)COC(c2ccc(C)cc2)OC3)cc1 (stereo not drawn) | 12.1
Cc1ccc(SCCNC(=O)/C=C/c2cccc([N+](=O)[O-])c2)cc1 | 21.7
CC(C)=NNc1nc2sc3c(c2c(=O)[nH]1)CC(C)(C)OC3 | 7.0
COc1ccc2oc(C(=O)OC/C(O)=C(\C#N)c3nc4ccccc4[nH]3)c(C)c2c1 | 20.1
CC(NC(=O)CSc1nnc(-c2cc3cc(Cl)ccc3o2)n1C)c1ccccc1 (stereo not drawn) | 10.6
Cc1nc(N)ncc1Sc1ccccc1 | 16.2
N/C(Cc1ccc([N+](=O)[O-])cc1)=N\OC(=O)C1CCCCC1 | 3.0
Cc1cc(C)c2c(=O)[nH]c(SCC(=O)N3CCOCC3)nc2n1 | 8.3
Oc1ccccc1CNCc1ccccc1 | 11.7
O=C(NN1CCOCC1)c1ccc(S(=O)(=O)N2CCCCC2)cc1 | 28.6
CCOc1ccc(CCN2C(=O)C(=O)N([C@H](CCCN(C)Cc3ccccc3)CNCc3ccccc3)C[C@@H]2C(C)C)cc1 | 20.6
O=S(=O)(Nc1nccs1)c1ccc(Br)cc1 | 20.5
C/C(CC(=O)c1ccccc1)=N\NC(=O)CC#N | 15.4
O=C(C1CCN(S(=O)(=O)N2CCCCC2)CC1)N1CCCCC1 | 15.5
Cc1cc(C)nc(N/N=C/c2ccc(N3CCOCC3)cc2)n1 | 5.7
Oc1[nH]c(N=C2N=c3ccccc3=N2)c2ccccc12 | 10.0
Cc1cc(C)c(S(=O)(=O)Nc2cccc(/C=C/C(=O)O)c2)c(C)c1 | 26.3
COc1ccc(NC(=S)NC2CCS(=O)(=O)C2)cc1 (stereo not drawn) | 13.3
O=C(N/N=C/c1cc(O)ccc1[N+](=O)[O-])c1ccc2c(c1)OCCO2 | 9.4
O=C(O)CC(CNS(=O)(=O)c1cccc2nsnc12)c1ccccc1 (stereo not drawn) | -5.1
CC1(C)[C@@H](O)CC[C@]2(C)C3C(O)C=C4[C@H]5C[C@@](C)(C(=O)O)CC[C@]5(C)CC[C@]4(C)[C@]3(C)CC[C@@H]12 (stereo partly drawn) | 19.5
CN(C)C=Nc1nonc1-c1ccc(Cl)cc1 | 20.3
CN(C)c1ccc(/C=N/NC(=O)CCC(=O)NCc2ccccc2)cc1 | 12.1
O=C1CCCC(=O)N1c1ccc(NCCOCCO)c([N+](=O)[O-])c1 | 15.3
Cn1c(=O)oc2cc(NC(=O)CCl)ccc21 | 13.2
O=C(CCc1nc2ccccc2c(=O)[nH]1)OCc1cccc(C(F)(F)F)c1 | 16.6
CC1CC(C)CN(C(=O)C(C)N(C)CC(=O)Nc2ccc(Cl)cc2)C1 (stereo not drawn) | 10.2
Cc1ccc(S(=O)(=O)N2CCOC2CNC(=O)C(=O)NCc2ccco2)cc1 (stereo not drawn) | 5.5
Cc1nc2sc(C(=O)OC(C)C)c(N)c2c(C)c1C | 6.2
CN(C)c1cccc2c1c(NC(=O)Nc1ccc(Cl)cc1Cl)nn2C | 21.8
CC(C)N(Cc1ccccc1)C(=S)NCc1ccccc1 | 19.6
O=C(CSc1ncccn1)N/N=C/c1ccccc1[N+](=O)[O-] | 16.2
Cc1cccc(N2CCN(C(c3ccncc3)c3nnnn3C(C)(C)C)CC2)c1C (stereo not drawn) | 14.2
Cc1cc(C)cc(OC(=O)C23CCC(C)(C(=O)O2)C3(C)C)c1 (stereo not drawn) | 16.3
Nc1nc2nonc2nc1N | 16.0
CCN(CC)C(=O)CSc1nc2ccccc2c(=O)n1CCC(=O)NCCc1ccc(OC)c(OC)c1 | 11.4
O=C(Nc1ccccc1N1CCCCC1)c1ccc(-c2ccc(Cl)cc2)o1 | 18.1
CCN(Cc1ccccc1)c1c(C(=O)O)cnc2c1cnn2C | 23.6
COc1ccc(/C=C2\SC(=O)N(CCC(=O)Nc3ccccc3)C2=O)cc1OC | 11.7

Further entries.
SMILES | Biofilm kill mix
O=C(CSc1ncnc2scc(-c3ccc(Cl)cc3)c12)NCc1ccc2c(c1)OCO2 | -41.8
Cc1cc(C)cc(-n2c(C)cc(C(=S)N3CCOCC3)c2C)c1 | 3.8
CSC(=NC#N)N1CCN(c2ccccn2)CC1 | 11.9
COC(C(=O)NC1CCCCCCC1)c1ccccc1 (stereo not drawn) | 14.2
O=[N+]([O-])c1ccc(CN2CCOCCOCCN(Cc3ccc([N+](=O)[O-])cc3)CCOCC2)cc1 | 17.0
CCOC(=O)C1=NNC2(c3ccc(Cl)cc3)C(=O)N(c3ccc(C)cc3)C(=O)C12 (stereo not drawn) | 12.7
CC(=O)c1cccc(NC(=S)NCCC2=CCCCC2)c1 | 8.5
COCCn1c(=NC(=O)c2ccc3c(c2)OCCO3)sc2cc(S(N)(=O)=O)ccc21 | 6.8

Some of the compounds tested; count on the stated rates, not on these rows.
